Source: PubChem
Biofilm kill mix: clotrimazole potentiators killing C. albicans biofilm, primary screen, 4-compound mixtures; C. albicans biofilm persisters + clotrimazole, fluorescence viability; primary screen in compound mixtures of four per well; inhibition, % at 7.6 µM; hit rate 0.02% among 120,000; AID 1242, 2008;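 active = inhibition above 30.3% in the primary screen of four-compound pools, then above 30% when the compound was retested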;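 also: compounds exposed to preformed 24 h biofilms for 48 h; the number belongs to the whole pool; some results filed as inactive read as strong as hits; inactives centre near 12; 0% = biofilm with clotrimazole alone and 100% = kill control; retested singly at about 60 µM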
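Assay system: C. albicans biofilms / Medium: RPMI/MOPS medium, pH 7.0 / Schedule: biofilm formation 24 h, compound exposure 48 h, 37 °C / Measured by: Alamar Blue fluorescence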
Starred values were filed as active, the others as inactive.

SMILES	Biofilm kill mix
Cc1nn(-c2ccccc2)c2nc(N)c(C#N)c(-c3ccc(C(C)(C)C)cc3)c12	8.7
O=C(Nc1ccc(S(=O)(=O)Nc2ncccn2)cc1)C1=NN(c2ccccc2)C(=O)CC1	28.1
O=C(Nc1ccc(OCC(F)(F)C(F)F)cc1)c1ccncc1	-8.3
O=C(O)CCN1C(=O)c2ccc(NC(=O)C(c3ccccc3)c3ccccc3)cc2C1=O	29.5
CN(C)/C=N/c1sc2c(c1C(N)=O)CCCC2	4.6
O=C1C=C(Nc2ccccc2)CC(c2ccccc2)C1 (stereo not given)	47.8
CCNC(=S)N/N=C/c1ccc(OCC(=O)Nc2ccc(OC)cc2)c(OC)c1	16.6
Cc1cccc(NC(=O)Nc2ccccn2)c1C	21.2
COc1ccc(NC(=O)c2cccc(Cn3cc(Br)c([N+](=O)[O-])n3)c2)c(C)c1	10.9
CCn1cc(C(=O)OCC(=O)c2cc(C)n(-c3ccccc3F)c2C)c(=O)c2ccc(C)nc21	7.2
Cc1ccc(N2C(=O)NC(NC(=O)c3ccc(Cl)cc3)(C(F)(F)F)C2=O)cc1 (stereo not given)	11.4
CCN(CC)C(=O)CSc1nc2ccccc2o1	10.3
C=CCn1c(CCC(O)COCCCCC)n[nH]c1=S (stereo not given)	11.9
CC(C)[C@H](NC(N)=O)C(=O)NNC(=O)COc1cccc(C(F)(F)F)c1	17.5
Cc1ccc(C(=O)N/C(=C\c2cccnc2)c2nc3ccccc3[nH]2)cc1	6.4
O=C(NCCN1CCOCC1)c1ccc(NC(=O)C2COc3ccccc3O2)cc1 (stereo not given)	14.5
COC(=O)CCCn1c(C)cc(C(=O)CCl)c1C	10.5
COc1ccc(C(=O)N/N=C2\CCS(=O)(=O)c3ccc(F)cc32)cc1OC	15.9
Fc1ccc(C2c3[nH]c4ccccc4c3CCN2Cc2ccoc2)cc1 (stereo not given)	5.1
Cc1cc(Cl)nc(-n2nc(C)cc2C)n1	25.9
COc1ccc(OCC(=O)N2CCc3c([nH]c4ccccc34)C2c2ccccn2)cc1 (stereo not given)	13.7
C=CCC(NCc1ccccc1)c1ccc(Cl)cc1 (stereo not given)	4.7
O=C(CSc1nncs1)NC(=O)Nc1ccc2c(c1)OCCO2	24.8
O=C(NCc1ccccc1)Nc1cccc2ccccc12	7.8
CCCCN(C(=O)CSc1nnnn1C)c1c(N)n(Cc2ccccc2)c(=O)[nH]c1=O	25.3
Clc1ccsc1-c1ccnc(-n2cccc2)n1	10.4
CCn1c(CCCOc2ccc(Cl)cc2Cl)nnc1SCC(=O)Nc1cc(F)ccc1C	10.0
CCO[C@H]1OC(C(=O)NC2CC2)=C[C@@H](c2ccc3c(c2)OCO3)[C@@H]1CCCO	18.3
COCCNC(=O)NC(=O)CSc1nc(C)c(C)c(C)n1	5.2
CC(C)N1CCN(Cc2cccn2-c2ccccn2)CC1CCO (stereo not given)	9.4
CC1(C(=O)OCc2cc(=O)n3cc(Br)ccc3n2)CC1(Cl)Cl (stereo not given)	-6.5
O=C(CN1C(=O)COc2ccccc21)N1CCc2ccccc2C1	10.3
O=C(O)CC(NC(=O)Cc1ccc([N+](=O)[O-])cc1)c1ccc2c(c1)OCO2 (stereo not given)	10.6
COc1ccc(OCC(=O)N/N=c2\oc3c(OC)cccc3cc2C(N)=O)cc1	12.5
Cc1cccc(C(=O)N2CCN=C2SCc2ccc([N+](=O)[O-])cc2)c1	8.7
Cc1ccc(NC(=O)c2cc(N3C(=O)CCC3=O)ccc2N2CCOCC2)cc1	6.5
CC(C)CCC1=NN(C(=O)c2ccco2)C(O)(C(F)(F)F)C1 (stereo not given)	18.6
CCC(=O)Nc1cccc(NC(=S)NC(=O)c2cccc(C)c2)c1	3.3
COc1cccc(CC2(CO)CCCN(Cc3ccccc3-c3ccco3)C2)c1 (stereo not given)	4.3
Cc1ccc(S(=O)(=O)N2CCN(CCC#N)CC2)cc1	7.2
Cc1ccc(-c2ccc(=O)n(CC(=O)Nc3ccc4c(c3)OCCO4)n2)cc1	17.6
COC(=O)c1cc(NS(=O)(=O)c2ccc(C)c3ccccc23)ccc1N1CCOCC1	4.9
CCOc1ccc(-n2nnnc2SCC(=O)N2CCOCC2)cc1	11.0
CSc1nc2nc3c(cc2c(=O)n1-c1ccccc1)COC(C)(C)C3	5.8
Cc1ccc(C(=O)/C=C/c2ccc3c(c2)OCCO3)c(O)c1	25.2
COc1ccc(OC)c(NC(=O)C(=O)NNC(=O)C23CC4CC(CC(C4)C2)C3)c1	19.3
COc1ccc(-c2cc(=O)oc(-c3cccc(C)c3)n2)cc1	10.3
O=C1NC2(CCCCC2)C(=O)N1/N=C/c1ccccc1Br	5.5
Oc1ccc(NCc2cccc(OCc3ccccc3)c2)cc1	9.0
O=C(CCl)N(c1ccccc1)C1CCCCC1	-0.4
Other records.
SMILES	Biofilm kill mix
CC(C)(C)n1nnnc1C(c1ccc(Cl)cc1)N(Cc1cccnc1)Cc1ccco1 (stereo not given)	6.2
Cc1ccc(C)c(-n2c(Cc3cccs3)n[nH]c2=S)c1	12.2
COCC(=O)Nc1c(C(=O)Nc2ccc3c(c2)OCCO3)oc2ccccc12	-4.8
Cc1cc(C)n(CC(O)Cn2cnc3c2c(=O)n(C)c(=O)n3C)n1 (stereo not given)	13.9
CCN(CC)CCN1C(=O)C(=O)/C(=C(/O)c2ccc(F)cc2)C1c1cccnc1 (stereo not given)	4.8
CNS(=O)(=O)c1cc(NC(C)=O)c(C)cc1C	10.2
COc1ccc(/C=N/NC(=O)CN2CCN(Cc3ccccc3)CC2)cc1Br	19.2
CN(C)c1nc(N)c([N+](=O)[O-])c(NCC2CCCO2)n1 (stereo not given)	19.3
CCOc1ccc(N2C(=O)CNC2=S)cc1	-7.3
O=C(NCc1ccc2c(c1)OCO2)c1ccc(Cl)s1	-6.0
CCOc1cc(/C=N/NC(=O)C(=O)N2CCCC2)ccc1O	14.4
CCCOC(=O)Nc1cccc(C(C)=O)c1	-0.3
COc1cc(OC)cc(C(=O)O/N=C(\N)c2ccncc2)c1	8.1
Cc1cccc(C(=O)NNC(=O)c2ccccc2C)c1	13.6
CCCc1ncc(C(O)(c2ccccc2)c2ccccc2)n1C	16.7
CCC(C)(C)C1CCC(=NNC(=S)Nc2ccccc2)CC1 (stereo not given)	11.6
Cc1cc(Nc2ccc([N+](=O)[O-])cc2)nc2ccccc12	16.9
COc1ccc2c(c1)c(C(=O)N/N=C/c1ccc(OC)c(OC)c1)c(C)n2C	6.4
Cc1nc([N+](=O)[O-])c(N2CCOCC2)n1Cc1ccccc1	-3.7
CCNC(=S)Nc1ccc(C)c(Cl)c1	9.9
O=C(Nc1ccc(Cl)cc1)NN1CC(=O)N(c2cccc(C(F)(F)F)c2)CC1=O	23.7
FC(F)(F)c1ccccc1NC(=S)Nc1cccc2cnccc12	6.5
O=C(NC1=NCCS1)c1ccc(Cl)c(S(=O)(=O)N2CCCCCC2)c1	17.6
COc1ccc(-c2noc(CCC(=O)NCCc3cccc(C)c3)n2)cc1	9.0
CC(/C=C/c1ccccc1)=N\NC(=O)Cn1nc(C)cc1C	-1.3
O=C(CN1CCC(C(=O)O)CC1)Nc1ccccc1Oc1ccccc1	1.6
NC(=O)CC(NC(=O)c1ccccc1)c1ccc(NC2CCC2)c([N+](=O)[O-])c1 (stereo not given)	22.3
C/C(Cn1cnc([N+](=O)[O-])n1)=N\NC(=O)c1ccccc1	9.0
COCCCNC(=S)N1CCN(C(=O)c2ccco2)CC1	3.8
Cc1nc2ccc(NC(=O)Cc3cccc(F)c3)cc2s1	-5.1
Cn1nccc1NC(=O)c1nccnc1C(=O)O	21.3
O=C(CNC(=O)c1cccs1)NCC(=O)OCc1ccccc1Br	19.3
O=C(NCCN1C(=O)S/C(=C\c2ccc(Cl)c(Cl)c2)C1=O)c1cnccn1	22.4
CCOC(=O)CC(=O)CSc1nc(-c2ccccc2)cc(-c2ccccc2)c1C#N	12.1
COC(=O)c1sc(-c2ccccc2)cc1NC(=O)c1ccc(OC)cc1	5.6
CCn1c(SC(C)C)nnc1-c1cc(-c2ccccc2)sc1N	16.9
NNC(=O)c1sc(-c2ccccc2)cc1N	14.2
Cc1ccc(NC(=O)NCc2c(C)nn(C)c2C)cc1Cl	21.9
Cc1ccccc1-c1n[nH]c(=S)n1/N=C/c1ccc(-c2ccccc2Br)o1	19.2
CC(C)c1nn(-c2cc(C(F)(F)F)ccn2)c(=O)o1	15.3
COc1ccc(C(C(=O)NC2CCCCC2)N(Cc2ccco2)C(=O)CNC(=O)c2ccco2)cc1 (stereo not given)	6.1
O=C(CSc1nc(-c2ccc(F)cc2)cc(C(F)(F)F)n1)NCCN1CCOCC1	19.7
C=CCNC(=O)c1ccc(C2SCC(=O)N2Cc2ccccc2)cc1 (stereo not given)	13.8
CCC[N+](C)(C)C(C)C(OC(C)=O)c1ccccc1 (stereo not given)	11.7
N=C1/C(=C/c2cccn2Cc2ccc(Cl)cc2)C(=O)N=C2SC=CN12	21.5
CCOc1ccc(/C=C2\NC(=S)NC2=O)cc1	15.7
CCOc1ccc(C(=O)NC(C(=O)NCc2ccccc2OC)C(C)C)cc1 (stereo not given)	19.2
O=C(N/N=C/c1ccccc1OC(=O)c1ccc2c(c1)OCO2)c1cccc(F)c1	19.3
CCN1N=C(c2cc(Cl)sc2Cl)CSC1=O	3.6
CN(C)S(=O)(=O)c1cc(NC(=O)CN2CCN(c3ccc(O)cc3)CC2)ccc1Cl	14.7

5 entries from above, arranged by formula weight, descending:
SMILES	Biofilm kill mix
O=C(O)CCN1C(=O)c2ccc(NC(=O)C(c3ccccc3)c3ccccc3)cc2C1=O	29.5
CC(C)[C@H](NC(N)=O)C(=O)NNC(=O)COc1cccc(C(F)(F)F)c1	17.5
COC(=O)c1sc(-c2ccccc2)cc1NC(=O)c1ccc(OC)cc1	5.6
CSc1nc2nc3c(cc2c(=O)n1-c1ccccc1)COC(C)(C)C3	5.8
CNS(=O)(=O)c1cc(NC(C)=O)c(C)cc1C	10.2

A run of entries of the results above:
SMILES	Biofilm kill mix
CCOc1ccc(C(=O)NC(C(=O)NCc2ccccc2OC)C(C)C)cc1 (stereo not given)	19.2
O=C(N/N=C/c1ccccc1OC(=O)c1ccc2c(c1)OCO2)c1cccc(F)c1	19.3
CCN1N=C(c2cc(Cl)sc2Cl)CSC1=O	3.6
CN(C)S(=O)(=O)c1cc(NC(=O)CN2CCN(c3ccc(O)cc3)CC2)ccc1Cl	14.7

(list continues)
SMILES	Biofilm kill mix
O=C(CCC(=O)Nc1ccccc1Cl)NNC(=O)c1ccccc1[N+](=O)[O-]	5.7
CCC(C)NC(=O)NCc1ccccc1F (stereo not given)	13.5
COc1ccc(/C=C/C(=O)NCC(c2ccc(F)cc2)N2CCOCC2)cc1OC (stereo not given)	12.2
c1ccc(-n2cc(CN3CCCC3)c(-c3ccc4c(c3)OCO4)n2)cc1	15.1
CC(=N/O)/C(C)=N\NC(=O)c1ccccn1	9.1
CCOC(=O)C1(Cc2ccccc2C(F)(F)F)CCN(C2CCCC2)CC1	16.5
Cc1ccc(C(=O)COC(=O)CCc2ccc(S(=O)(=O)N3CCCCC3)cc2)cc1	15.4
O=C(N/N=C/c1ccccc1O)C(=O)Nc1ccccn1	10.3
Cn1cc(/C=C(\C(=O)O)C(C(=O)O)=C2CCCCC2)c2ccccc21	9.8
CSc1ccc(CNCCN2CCOCC2)cc1	14.2
COCCNc1ccc(-c2nn(C)c(=O)c3ccccc23)cc1[N+](=O)[O-]	14.5
Cc1ccccc1OCc1csc(N)n1	18.0
CCCNC(=S)N1CCC(NC(=O)C23CC4CC(CC(C4)C2)C3)CC1	13.7
COc1ccc([N+](=O)[O-])cc1NC(=O)CSCc1ccccc1	17.9
CCOc1cc(C2NN=C(c3ccc(C)cc3)S2)ccc1O (stereo not given)	-5.0
COCCNC(=O)/C(C#N)=C/c1cccc(NC(=O)c2ccccc2Cl)c1	15.2
CC(=O)Oc1ccc(C(=O)O)c(OC(C)=O)c1	22.4
O=C(CN1CCN(Cc2ccccc2)CC1)N/N=C\C=C/c1ccco1	11.9
O=C(C[n+]1cc(-c2ccc(Cl)c(Cl)c2)n2c1CCC2)N1c2ccccc2Sc2ccccc21	22.3
COC(=O)c1c(NC(=O)COC(=O)c2ccc(O)cc2)sc2c1CCCCC2	17.4
CSCCCNC(=S)Nc1ccc(N2CCOCC2)cc1	15.6
CC(=O)Nc1nc(C)c(C(C)(C)C)s1	21.5
CSc1nc2sc3c(c2c(=O)n1CC(C)C)CC(C)(C)OC3	13.9
COc1ccc(NC(=S)NCc2cccnc2)cc1OC	3.9
COc1ccccc1N(Cc1ccccc1)S(=O)(=O)c1cccc(C(=O)O)c1	18.8
O=C(O)COc1ccccc1/C=N/NC(=O)CSc1nc2ccccc2c(=O)n1-c1ccc(Cl)cc1	14.5
Cn1c2c(c(=O)n(C)c1=O)C(c1ccc(F)cc1)C(C#N)=C(N)O2 (stereo not given)	12.4
CNC(=O)NNC(=O)c1onc(-c2c(Cl)cccc2Cl)c1C(=O)OC	2.8
Cc1cc(C)nc(NS(=O)(=O)c2ccc(CC(C)C)cc2)c1	18.0
NS(=O)(=O)c1cccc(NS(=O)(=O)c2ccc(/C=C/C(=O)OCC(=O)c3ccc(Br)cc3)cc2)c1	10.4
O=C(NCCCN1CCOCC1)c1sc2ccccc2c1Cl	7.0
Cc1nn(CC(=O)NCC2CCCO2)c(C)c1[N+](=O)[O-] (stereo not given)	11.3
Cc1cc(C)nc(/N=C2\NC(=O)CC(C(=O)O)N2c2ccc(F)c(Cl)c2)n1 (stereo not given)	-0.3
COc1ccc(CNC(=O)CCn2c(=O)[nH]c3ccccc3c2=O)cc1	4.3
CC(C)/C=N/NC(=O)c1cccc(N2CCCC2=O)c1	17.4
O=C1c2cccc3cc([N+](=O)[O-])cc(c23)C(=O)N1CC1CCCO1 (stereo not given)	20.0
CC(C)Cn1c(N)c(C=O)c(=O)n(C)c1=O	1.1

Look-ups from above.
`O=C(NCCCN1CCOCC1)c1sc2ccccc2c1Cl` @ Biofilm kill mix: 7.0
`CC(C)Cn1c(N)c(C=O)c(=O)n(C)c1=O` @ Biofilm kill mix: 1.1

These rows are one share of the data; the hit share may differ from the screen's.
